# Measles inh: inhibitors of measles virus growth in infected cells; z-score (concentration not given with the values); 0.1% of 33,000 active; infected Vero cells, GFP fluorescence, 64 h; active compounds read low;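 active = z-score under -3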;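 also: score is relative to mean and SD of the compound wells of a plate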
# An asterisk follows results filed as active. An excerpt; the hit share may differ from the screen's.
SMILES,Measles inh
COc1cc(OC)c(OC)cc1C=Nc1c(C)n(C)n(-c2ccccc2)c1=O,0.71
O=S(=O)(NC1c2cccc3cccc(c23)C1N1CCNCC1)c1ccc(Cl)cc1 (centres undefined),-0.98
CC(C)c1ccc(NC(=O)c2cc(S(=O)(=O)N3CCc4ccccc43)ccc2F)cc1,-0.09
CC1(C)Cc2c(c(N3CCOCC3)nc3sc(C(=O)c4ccc(Cl)cc4)c(N)c23)CO1,-0.82
CCOc1ccccc1C(=O)Nc1c2c(nn1C(C)(C)C)CSC2,-0.45
COc1cccc(-n2nc(C(=O)Nc3cc(OC)ccc3OC)c3ccccc3c2=O)c1,-0.06
COc1cccc(C(=O)Nc2nc(-c3ccc(F)cc3)cs2)c1,1.1
COc1ccc(C(=O)NCCc2ccc(OC)c(OC)c2)c(OC)c1,-0.28
CCCCNC(=O)c1cc(-c2cccnc2)nc2ccc(S(=O)(=O)N3CCCCCC3)cc12,1.6
CCCN1CCN(C(=O)c2cc3cc4ccc(C)cc4nc3s2)CC1,0.38
COc1cc2c(cc1OC)C(C(=O)NCCN1CCOCC1)C(c1cccs1)N(C)C2=O (centres undefined),-0.38
O=C(NC1CC1)c1ccc(Sc2ccc(Br)cc2)c([N+](=O)[O-])c1,1.5
O=C(NCC1CCCO1)c1coc2nc3ccccc3nc12 (centres undefined),1.1
COc1ccc(Cl)cc1NC(=O)CSc1nc2c(c(=O)n1Cc1ccccc1)SC(C)C2 (centres undefined),-0.39
O=C(NCCc1ccccc1)c1c[nH]c2ccc(S(=O)(=O)N3CCN(c4ccc(F)cc4)CC3)cc2c1=O,0.09
CSc1ccc(CN2CCN(S(=O)(=O)c3ccc(C)cc3)CC2)cc1,-0.69
O=C(O)c1ccc(N2C(=O)CC(N3CCN(c4ccc(Cl)cc4)CC3)C2=O)cc1 (centres undefined),-1.2
O=C(Nc1ccc2nn(-c3ccccc3)nc2c1)c1ccccc1Cl,0.18
Cn1c(=O)c2c(nc(NCCO)n2Cc2cccc3ccccc23)n(C)c1=O,0.16
CCc1ccc(CNC(=O)Cn2ncc3c(=O)oc4ccccc4c32)cc1,-0.64
Cc1c(C(=O)NCCc2ccc(Cl)cc2)oc2ccc(S(=O)(=O)N3CCCCCC3)cc12,0.1
Cc1ccc(C(=O)Nc2sc(C)c(C)c2C#N)cc1,2.6
Cc1cc(NCCN2CCOCC2)n2c(nc3ccccc32)c1C#N,0.53
CCOC(=O)c1c(NC(=O)c2cccc(OC)c2)sc(C)c1C,-0.17
O=C(Nc1ccccn1)C(=O)N1CCOCC1,0.28
CCCC1C(c2ccc(OC)cc2)C(C#N)(C#N)C2(C#N)CC1(N)NC2=O (centres undefined),1.8
COc1ccc(NC(=O)C2c3cc(OC)c(OC)cc3C(=O)N(C)C2c2ccc(OC)c(OC)c2)cc1Cl (centres undefined),0.29
Cc1cc(C)cc(CC2CC(=O)N(c3cc(C)ccc3C)C2=O)c1 (centres undefined),-0.22
COc1cccc(C2=Nn3c(nnc3-c3cccnc3)SC2)c1,-0.03
Cc1cc(NC(=O)c2ccc(NS(=O)(=O)c3c(C)n[nH]c3C)cc2)ccc1Br,-0.47
O=C(CSc1nc2[nH]ncc2c(=O)n1-c1ccccc1)N1CCCc2ccccc21,-1.6
CSc1nnc2c(n1)-c1cccc3cccc-2c13,0.02
O=C1c2ccccc2-c2onc3c(N4CCN(C(=O)c5ccco5)CC4)cc(Nc4ccc5c(c4)OCCO5)c1c23,0.54
O=C(CSc1nc2c(c(=O)n1-c1ccc([N+](=O)[O-])cc1)SCC2)NCc1ccc(F)cc1,0.96
O=C(Nc1nnc(COc2ccc([N+](=O)[O-])cc2)s1)c1ccccc1I,-0.2
C=CCOc1ccc(C2Oc3ccccc3C3CC(c4ccccc4)=NN32)cc1 (centres undefined),-1.1
COc1ccc(Nc2ncnc3[nH]ncc23)cc1,-0.23
CCn1cc(C(=O)N2CC(C)CC(C)C2)c(=O)c2cc(S(=O)(=O)N3CCC(C)CC3)ccc21 (centres undefined),0.12
Cn1c(=O)c2c(nc(SCC(=O)Nc3ccc(F)cc3)n2Cc2ccccc2)n(C)c1=O,-1.2
Oc1ccc(Br)cc1CN1CCN(Cc2ccccc2C(F)(F)F)CC1,-0.86
NC(=O)c1sc2[nH]c(=O)c(C(=O)O)cc2c1N,0.62
CCOC(=O)c1cnc2c(ccc3ccccc32)c1NCCOC(=O)c1ccccc1C,1.9
c1c2c(cc3c1OCCO3)C1CN(C2)Cc2cc3c(cc21)OCCO3,1.1
CC1CCN(S(=O)(=O)N2CCC(C(=O)NCc3ccccn3)CC2)CC1,0.27
CC(=O)OCc1cnc(C)c2oc(=Nc3ccc(OC(F)(F)F)cc3)c(C(=O)Nc3ccccc3F)cc12,-0.12
O=C(Nc1ccc(-c2nc3cc(Cl)ccc3o2)cc1)c1ccc(I)cc1,0.87
O=[N+]([O-])c1ccccc1Oc1nc(-c2ccccc2)c2cc(Cl)ccc2n1,-0.3
Cc1ccc(OCC(=O)Nc2ccc(I)cc2)cc1C,-0.18

# 2 neighbouring compounds already listed:
SMILES,Measles inh
O=C(Nc1ccc(-c2nc3cc(Cl)ccc3o2)cc1)c1ccc(I)cc1,0.87
O=[N+]([O-])c1ccccc1Oc1nc(-c2ccccc2)c2cc(Cl)ccc2n1,-0.3

# Next part
SMILES,Measles inh
Cc1cccc(C)c1Nc1c(-c2ccc(Cl)s2)nc2ncccn12,1
Cc1ccccc1OCCSc1nc2ccccc2[nH]1,-0.73
CCC(C)(C)C1CCc2sc3ncnc(NCCN4CCOCC4)c3c2C1 (centres undefined),-0.92
CCCCN=C(C)c1c(O)c2ccccc2oc1=O,-0.33
Nc1nc(-c2ccc(Cl)c([N+](=O)[O-])c2)nc2c1c(=O)oc1ccccc12,-0.66
O=C(CCCCCn1c(=S)[nH]c2ccc(Br)cc2c1=O)NCC1CCCO1 (centres undefined),-0.53
O=C(Nc1ccc([N+](=O)[O-])cc1)c1cc2c(=O)n3ccccc3nc2s1,2.5
COc1ccc(OC)c(C2NC(=O)c3sc(=S)n(-c4ccccc4)c3N2)c1 (centres undefined),0.17
COc1cc(NS(C)(=O)=O)c(OC)cc1Cl,-0.36
O=C(Nc1nccs1)c1cc2ccccc2oc1=Nc1cccc(C(F)(F)F)c1,-0.3
COc1ccccc1OCc1nc(-c2cccnc2)no1,-0.02
CCOc1ccccc1C1C(C(=O)OC)=C(C)N(C)C(C)=C1C(=O)OC,2.1

# Reformatted field by field: part of the list above
> Cc1ccccc1OCCSc1nc2ccccc2[nH]1
  Measles inh: -0.73

> CCC(C)(C)C1CCc2sc3ncnc(NCCN4CCOCC4)c3c2C1 (centres undefined)
  Measles inh: -0.92

> CCOc1ccccc1C1C(C(=O)OC)=C(C)N(C)C(C)=C1C(=O)OC
  Measles inh: 2.1

# More structures.
SMILES,Measles inh
NS(=O)(=O)c1ccc(CNC(=O)c2ccc(F)cc2)cc1,-0.19
C=CCSc1nc2sc3c(c2c(=O)n1CC)CCc1ccccc1-3,-0.47
CCOC(=O)C1=C(O)CCN(C)C1,-0.53
O=C(O)C1Cc2c([nH]c3ccccc23)C(c2ccccc2O)N1 (centres undefined),-0.09
Cc1cccc2oc(-c3cc(N=Cc4ccccc4[N+](=O)[O-])ccc3O)nc12,1.4
Nc1ccc2c(c1)C(=O)N(CCC(=O)O)C2=O,0.31
CCOc1ccc(-n2nc3ccc(NC(=O)COc4ccccc4)cc3n2)cc1,0.74
O=C(c1ccc(C(F)(F)F)cc1)N1CCN=C1SCc1ccccc1F,0.96
Cc1ccc(CSc2nc3c([nH]c4ccccc43)c(=O)n2C)cc1,0.9
O=C(CCCC1=NS(=O)(=O)c2ccccc2N1)NCc1ccc2c(c1)OCO2,0.94
CCCCOC(=O)c1cccc(NC(=O)c2c(C)cc(C)cc2C)c1,0.51
O=C1c2ccccc2NC(c2ccc3c(c2)OCO3)N1c1ccc(F)cc1 (centres undefined),-0.51
Cc1cccc(Oc2nc3c(c(=O)n(C)c(=O)n3C)n2Cc2ccccc2)c1C,-0.21
COc1ccc(N2C(=O)C3ON(C4SC(=S)N(C)C4(C)C)C(c4ccccc4)C3C2=O)cc1 (centres undefined),0.07
O=C(CN(c1ccc(Cl)c(C(F)(F)F)c1)S(=O)(=O)c1ccccc1)NCC1CCCO1 (centres undefined),0.25
CCCCCCCNC(=O)c1ccc2c(c1)ncn2-c1cccc(F)c1,0.56
CC(=O)N(C1=C(N2CCCCC2)C(=O)c2ccccc2C1=O)c1cccc(I)c1,-0.2
O=C(CSc1nnc2c(n1)[nH]c1ccccc12)OCN1C(=O)c2ccccc2C1=O,2.1
COc1ccc(Cn2c(=O)[nH]c3cc(C(=O)NCCC(C)C)ccc3c2=O)cc1,0.32
Cc1nc2c(C(=O)NCCc3ccccc3Cl)c[nH]n2c(=O)c1Cl,-0.24
CCOC(=O)C1=C(C)NC(C)=C(C(=O)OCC)C1c1ccc(C)cc1,-0.77
COc1ccc(Cl)cc1NC(=O)c1cc2c(=O)n(C)c3cc(Cl)ccc3c2s1,1.5
COc1cccc(-n2c(=O)c3sccc3n(CC(=O)N3CCCCC3C)c2=O)c1 (centres undefined),-0.35
CCOC(=O)c1c(O)cc2ccccc2c1O,0.14
COc1ccc(NC(=O)N2CCN(c3ccc(OC)cc3)CC2)cc1,-1.5
COc1cc(C(C)=O)ccc1OC(=O)CN1C(=O)c2ccccc2C1=O,0.61
CCN=C1SC(C(=O)Nc2cccc(Cl)c2)CC(=O)N1CC (centres undefined),-0.33
O=C(Nc1ncccn1)c1ccc([N+](=O)[O-])cc1Cl,0.89
COc1ccc(Cl)cc1NC(=O)c1cc2nc(-c3ccc(OC)c(OC)c3)cc(C(F)(F)F)n2n1,-1.5
Cn1c(=O)c2c(-c3ccccc3)n(-c3ccc(Br)cc3)cc2n(C)c1=O,1.4
COc1ccc(OCC2c3cc(OC)c(OC)cc3CCN2C(=O)Nc2cccc(Cl)c2)cc1 (centres undefined),-0.23
COc1ccc(C2Oc3c(OC)cccc3C3CC(c4cccs4)=NN32)cc1 (centres undefined),-0.27
FC(F)Oc1ccccc1C1CC(c2ccc(I)cc2)Nc2nnnn21 (centres undefined),-0.31
CCOc1ccc(C(=O)Nc2ccc3oc(-c4cccc(I)c4)nc3c2)cc1[N+](=O)[O-],-0.82
CC(NC(=O)Cc1ccccc1)c1nc2ccccc2n1C (centres undefined),-0.12
Cc1ccc(S(=O)(=O)NC2=NCN(C3CCN(Cc4ccccc4)CC3)CN2)cc1,-0.68
Cc1nn(Cc2ccc(F)cc2)c(C)c1NC(=O)c1cc(-c2ccc3c(c2)OCO3)on1,-0.72
O=C(Nc1cccc(Cl)c1)c1cc2c(=O)oc3ccccc3c2s1,1.1
O=C(c1ccc(Cl)cc1)N1CCN(c2ccc(C(F)(F)F)cc2[N+](=O)[O-])CC1,-1.4
NS(=O)(=O)c1ccc(CCNC(=O)c2cc(-c3ccc(Cl)s3)nc3ccccc23)cc1,-0.07
CCCCNC(=O)c1sc(=S)n(-c2ccc(C(=O)OCC)cc2)c1N,0.6
COc1ccccc1NC(=O)c1cc(S(=O)(=O)N2CCOCC2)ccc1F,-0.32
Nc1ccccc1C(=O)Nc1cccnc1Cl,-0.44
Cc1sc2ncn(CC(=O)N3CCCc4ccccc43)c(=O)c2c1S(=O)(=O)N1CCC(C)CC1,0.97
CCCOC(=O)C1=C(C)NC2=C(C(=O)CC(C)(C)C2)C1c1ccc(Cl)cc1 (centres undefined),-0.16
O=[N+]([O-])c1cc2c(cc1C=Nc1ccccc1)OCO2,-0.4
CCOC(=O)C1CCN(C(=O)CCc2nc(-c3ccc(C)cc3)no2)CC1,0.56
O=[N+]([O-])c1cc(S(=O)(=O)C(Cl)(Cl)Br)ccc1NCc1ccccc1,-1.6
Cc1ccc2cccc(Oc3ncnc4scc(-c5ccccc5)c34)c2n1,-1.6
COc1ccc(C(=O)Nc2cccc(C(F)(F)F)c2)cc1OC,-1.2
COC(=O)c1c(NC(=O)c2csc(C)c2-c2ccccc2)sc2c1-c1ccc(OC)cc1CC2,-0.64
Cc1ccc2c(c1)C1CN(C)CCC1N2S(=O)(=O)c1ccc(S(=O)(=O)N2CCOCC2)cc1 (centres undefined),-1.3
NC(=O)C[n+]1cccc(Br)c1,0.91
CC(NC(=O)C1C(=O)NC2(C)CC1c1ccccc1O2)c1ccccc1 (centres undefined),1.6
Cc1ccc(Nc2ncnc3c2cnn3-c2ccccc2)cc1,-0.47
CCOC(=O)c1cnc2c(OC)cccc2c1NCCCN1CCOCC1,-0.15
CCCCC(=O)NCc1ccc2[nH]c(C)cc2c1,-1.5
CCOc1ccccc1NS(=O)(=O)c1ccc2[nH]c(=O)c(=O)[nH]c2c1,-0.13
Cc1cc2nn(-c3ccccc3)nc2cc1NC(=O)c1cccs1,-0.66
C=CCn1c(SCC(=O)Nc2sc3c(c2C(=O)OC)CCC3)nc2sc3c(c2c1=O)CCCC3,-0.17
# The list continues.
SMILES,Measles inh
CNC(=O)CN1C(=O)COc2ccc(C(C)(C)C)cc21,2.5
CC12C=CC(C)(O1)C1C(=O)N(c3cccc4ccccc34)C(=O)C12 (centres undefined),0.37
CC1CCC(NC(=O)C2c3ccccc3C(=O)N2Cc2ccccc2Cl)CC1 (centres undefined),-0.21
COCCOC(=O)C1=C(C)NC(=O)CC1c1ccccc1OCc1ccccc1 (centres undefined),-0.34
OC(C#CC12CC3CC(CC(C3)C1)C2)c1cccs1 (centres undefined),-0.55
CC1CCC2C(=O)N(c3ccc(N4CC5CC(C4)c4cccc(=O)n4C5)c([N+](=O)[O-])c3)C(=O)C2C1 (centres undefined),-0.08
O=C1Oc2ccc3ccccc3c2C1(O)C(F)(F)F (centres undefined),-0.4

# Structures from the list above that contain a COOH group:
SMILES,Measles inh
O=C(O)c1ccc(N2C(=O)CC(N3CCN(c4ccc(Cl)cc4)CC3)C2=O)cc1 (centres undefined),-1.2
NC(=O)c1sc2[nH]c(=O)c(C(=O)O)cc2c1N,0.62
O=C(O)C1Cc2c([nH]c3ccccc23)C(c2ccccc2O)N1 (centres undefined),-0.09
Nc1ccc2c(c1)C(=O)N(CCC(=O)O)C2=O,0.31

# High-throughput results deposited in PubChem by Emory University Molecular Libraries Screening Center.
